Assay outcomes deposited in PubChem BioAssay by Broad Institute.
AF4-AF9 inh = MLL-AF4/AF9 protein interaction inhibition; P42568; AlphaScreen, biotin-AF4 peptide binding to FLAG-AF9; inhibition, % at 10 µM; 350,000 tested, 0.47% active;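 active means every replicate reaching a set inhibition limit, whatever the replicate mean, cut at about 25% in these data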;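 further: 0% = plate neutral control median and 100% = total signal loss; the record names both 10 and 1 µM as test concentration; the first replicate is given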
Target sequence (P42568 whole entry, looked up): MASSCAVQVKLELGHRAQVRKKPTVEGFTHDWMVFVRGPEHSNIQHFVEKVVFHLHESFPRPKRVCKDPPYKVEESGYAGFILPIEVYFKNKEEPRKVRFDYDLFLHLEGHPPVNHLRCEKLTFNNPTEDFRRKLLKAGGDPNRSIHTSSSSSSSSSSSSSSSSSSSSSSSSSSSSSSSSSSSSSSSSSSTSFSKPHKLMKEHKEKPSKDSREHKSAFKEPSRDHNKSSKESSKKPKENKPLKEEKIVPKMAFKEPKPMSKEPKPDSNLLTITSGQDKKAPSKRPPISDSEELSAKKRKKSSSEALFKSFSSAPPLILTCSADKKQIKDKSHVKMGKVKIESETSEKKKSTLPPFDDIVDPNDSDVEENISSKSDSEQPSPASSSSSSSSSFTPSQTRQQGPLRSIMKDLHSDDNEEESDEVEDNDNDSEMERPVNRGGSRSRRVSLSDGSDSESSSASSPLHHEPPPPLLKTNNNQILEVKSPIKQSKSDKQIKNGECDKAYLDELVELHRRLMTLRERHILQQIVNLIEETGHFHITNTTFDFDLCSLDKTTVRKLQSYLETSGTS
FGF22 binding = shifts melting point of recombinant human FGF22; recombinant FGF22 thermal shift, SYPRO orange fluorescence; percent of sucrose octasulfate shift, DMSO zero; calls only at 9.99 µM; 340,000 tested, 1.5% active;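 active means melting point raised past a set limit in the mean and every replicate; three in four hits are not shown here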
Target sequence (Q9HCT0 whole entry, looked up): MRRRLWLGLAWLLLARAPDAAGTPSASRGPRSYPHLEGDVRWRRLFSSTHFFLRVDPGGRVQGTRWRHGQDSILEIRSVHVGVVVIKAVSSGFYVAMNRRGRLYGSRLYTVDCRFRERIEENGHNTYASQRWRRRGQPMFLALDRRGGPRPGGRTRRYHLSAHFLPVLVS
Active calls of the source: *; i = inactive; & = joins results of further samples. The list is partial; count on the stated rates, not on these rows.

A first look, four compounds:
SMILES	AF4-AF9 inh	FGF22 binding
C[C@H]1CN([C@@H](C)CO)C(=O)c2c(c3ccccc3n2C)-c2ccccc2CO[C@H]1CN(C)S(=O)(=O)CC(F)(F)F	1.0	i
CO[C@H]1CC[C@H]2CCOc3c(C#N)cccc3C(=O)N(C)C[C@@H](C)C(=O)N(C)C[C@@H]1O2	-5.8	i
COc1ccc(NC(=O)N(C)C[C@H]2Oc3ccc(NC(=O)Cc4ccccc4)cc3CC(=O)N([C@@H](C)CO)C[C@@H]2C)cc1	-1.0	i
C[C@H]1CN([C@@H](C)CO)C(=O)c2cc(C#Cc3ccccc3F)cnc2O[C@@H]1CN(C)S(=O)(=O)c1ccccc1	2.5	i

The listing, from the first entry:
SMILES	AF4-AF9 inh	FGF22 binding
C[C@H]1CN([C@@H](C)CO)C(=O)c2c(c3ccccc3n2C)-c2ccccc2CO[C@H]1CN(C)S(=O)(=O)CC(F)(F)F	1.0	i
CO[C@H]1CC[C@H]2CCOc3c(C#N)cccc3C(=O)N(C)C[C@@H](C)C(=O)N(C)C[C@@H]1O2	-5.8	i
COc1ccc(NC(=O)N(C)C[C@H]2Oc3ccc(NC(=O)Cc4ccccc4)cc3CC(=O)N([C@@H](C)CO)C[C@@H]2C)cc1	-1.0	i
C[C@H]1CN([C@@H](C)CO)C(=O)c2cc(C#Cc3ccccc3F)cnc2O[C@@H]1CN(C)S(=O)(=O)c1ccccc1	2.5	i
COc1cccc(C#Cc2cnc3c(c2)C(=O)N([C@H](C)CO)C[C@@H](C)[C@@H](CN(C)C(=O)C2CCCCC2)O3)c1	-4.1	i
CCC(=O)N1[C@@H]2Cn3c(ccc(/C=C/c4ccccc4)c3=O)[C@H]1[C@@H](C(=O)N1CCOCC1)[C@@H]2CO	-0.8	i
C[C@H]1CN([C@@H](C)CO)C(=O)Cc2cc(NS(=O)(=O)c3cccs3)ccc2O[C@@H]1CN(C)Cc1ccc(-c2ccccc2)cc1	2.2	i
Cc1noc(C)c1S(=O)(=O)Nc1cccc2c1O[C@H](CN(C)C(=O)Nc1ccc(C(F)(F)F)cc1)[C@H](C)CN([C@H](C)CO)C2=O	2.5	i
C[C@@H]1CN([C@@H](C)CO)C(=O)c2cc(C#Cc3cccnc3)cnc2O[C@H]1CN(C)C(=O)CN(C)C	-5.4	i
C[C@@H]1CN([C@H](C)CO)S(=O)(=O)c2ccc(C#C[C@@H](C)O)cc2O[C@H]1CN(C)Cc1cccnc1	3.3	i
Cc1ccc(S(=O)(=O)N(C)C[C@@H]2OCCCC[C@@H](C)Oc3ccc(NC(=O)Nc4c(C)noc4C)cc3C(=O)N([C@@H](C)CO)C[C@@H]2C)cc1	1.6	i
O=C(NCC1CC1)[C@@H]1[C@@H](CO)[C@@H]2Cn3c(ccc(-c4cccc(F)c4)c3=O)[C@@H]2N1CC1CCOCC1	2.2	i
C[C@H]1CN([C@@H](C)CO)C(=O)c2cc(N(C)C)ccc2O[C@H]1CN(C)Cc1ccc(-c2ccccc2)cc1	33*	i
CO[C@H]1CN(C)C(=O)c2cc(NC(=O)C3CC3)ccc2OC[C@H](C)N(C(=O)NC(C)C)C[C@@H]1C	-2.3	i
C[C@H](CO)N1C[C@H](C)[C@H](CN(C)C(=O)CN2CCOCC2)Oc2ncc(/C=C/c3ccccc3)cc2C1=O	-11	i
COC(=O)N(C)C[C@H]1OCc2cn(nn2)CCCC(=O)N([C@H](C)CO)C[C@@H]1C	-8.2&-48	i
Cc1nn(C)cc1NC(=O)C[C@@H]1CC[C@H]2[C@@H](COc3ccc(NC(=O)C4CCOCC4)cc3C(=O)N2C)O1	-31	i
C[C@H](CO)N1C[C@H](C)[C@H](CN(C)C(=O)c2ccncc2)OCCCC[C@H](C)Oc2ccc(NS(=O)(=O)c3cn(C)cn3)cc2C1=O	1.5	i
CCCNC(=O)[C@@H]1[C@@H](CO)[C@@H]2Cn3c(ccc(/C=C/c4ccccc4)c3=O)[C@@H]2N1CC1CC1	-12	i
C/C=C/c1cnc2c(c1)C(=O)N([C@H](C)CO)C[C@H](C)[C@H](CN(C)S(=O)(=O)c1cccs1)O2	-3.6	i
C[C@H](CO)N1C[C@H](C)[C@H](CN(C)Cc2ccncc2)Oc2ccc(NS(=O)(=O)c3ccccc3)cc2C1=O	-2.9	i
CCC(=O)Nc1ccc2c(c1)C(=O)N(C)C[C@@H](OC)[C@H](C)CN(Cc1ccccn1)[C@@H](C)CO2	-2.8	i
CO[C@@H]1CN(C)C(=O)c2ccc(NC(C)=O)cc2OC[C@@H](C)N(C(=O)c2cccnc2)C[C@H]1C	2.0	i
Cc1ccc(S(=O)(=O)N2C[C@@H](O)COC[C@@H]3O[C@H](CC(=O)NCCCN(C)C)CC[C@H]32)cc1	-2.1	i
C[C@H](CO)N1C[C@H](C)[C@H](CN(C)S(=O)(=O)c2cn(C)cn2)Oc2c(NS(=O)(=O)c3cccs3)cccc2C1=O	-2.1	i
CCC(=O)N(C)C[C@@H]1Oc2ncc(C#CC(C)C)cc2C(=O)N([C@H](C)CO)C[C@@H]1C	-2.4	i
Cc1nc(S(=O)(=O)N[C@H]2CCN(Cc3ccc(OCCO)cc3)C2)cn1C	4.6	i
CC(=O)NC[C@H]1[C@H](c2ccccc2)[C@H](CO)N1C(=O)Cc1cccnc1	0.4	i
O=C(C[C@@H]1CC[C@H]2NC[C@H](O)COC[C@@H]2O1)Nc1ccc(-c2ccccc2)cc1	2.8	i
C[C@@H]1CCCCO[C@@H](CN(C)Cc2ccc(Cl)c(Cl)c2)[C@@H](C)CN([C@@H](C)CO)C(=O)c2cc(NS(=O)(=O)c3cccs3)ccc2O1	-1.2	i
CN1CCN(C(=O)C[C@H]2CC[C@H]3[C@@H](COC[C@H](O)CN3CC3CC3)O2)CC1	-3.5	i
O=C(C[C@H]1CC[C@H](NC(=O)Nc2ccc(F)cc2)[C@@H](CO)O1)NCc1cccc(F)c1	-1.9	i
COCC(=O)N1CC(=O)N2[C@H](C1)[C@H](c1ccc(-c3ccccc3F)cc1)[C@@H]2CO	-3.3	i
COc1ccccc1S(=O)(=O)N[C@@H]1CC[C@H](CC(=O)N2CCCCC2)O[C@@H]1CO	-13	i
Cc1noc(C)c1NC(=O)N(C)C[C@H]1Oc2c(NC(=O)c3nc4ccccc4s3)cccc2C(=O)N([C@@H](C)CO)C[C@H]1C	3.3	i
CC(C)NC(=O)Nc1ccc2c(c1)C(=O)N([C@@H](C)CO)C[C@@H](C)[C@@H](CN(C)C(=O)c1ccccc1)OCCCC[C@@H](C)O2	0.2	i
CCC(=O)N(C)C[C@H]1Oc2ncc(C#Cc3cccnc3)cc2C(=O)N([C@H](C)CO)C[C@H]1C	-2.8	i
C[C@H]1CN([C@@H](C)CO)C(=O)c2cccc(NS(=O)(=O)c3ccccc3)c2O[C@@H]1CN(C)C(=O)Nc1ccc2c(c1)OCO2	-1.2	i
CNC(=O)C[C@@H]1CC[C@H]2[C@@H](COC[C@H](O)CN2C(=O)c2ccc3c(c2)OCO3)O1	-2.0	i
COc1cccc(C#Cc2ccc3c(c2)O[C@H](CN(C)C(=O)CN2CCOCC2)[C@H](C)CN([C@@H](C)CO)S3(=O)=O)c1	3.8	i
COc1cccc(-c2ccc3n(c2=O)C[C@@H]2[C@@H](CO)[C@H](C(=O)NCC4CC4)[C@H]3N2S(C)(=O)=O)c1	-1.9	i
COc1ccc(NC(=O)Nc2ccc3c(c2)CC(=O)N([C@@H](C)CO)C[C@@H](C)[C@H](CN(C)C)O3)cc1	4.6	i
C[C@@H](NC(=O)C[C@@H]1C=C[C@@H](NC(=O)C2CC2)[C@@H](CO)O1)c1ccccc1	0.1	i
CO[C@@H]1CN(C)C(=O)c2cc(NS(=O)(=O)c3cn(C)cn3)ccc2OC[C@@H](C)NC[C@H]1C	-1.4	i
C[C@@H]1CN([C@@H](C)CO)C(=O)c2cccc(NS(=O)(=O)c3ccc(F)cc3)c2O[C@@H]1CN(C)S(=O)(=O)c1ccc(Cl)cc1	0.2	i
C[C@@H]1CN([C@@H](C)CO)C(=O)c2cc(NS(=O)(=O)c3ccccc3)ccc2O[C@H]1CN(C)S(=O)(=O)c1ccccc1	3.6	i
CCCC(=O)N1CC2(CN(C(=O)CC3CC3)C2)c2c(n(C)c3cc(OC)ccc23)[C@H]1CO	-2.4	i
O=C(N[C@@H]1CC[C@@H](CCNS(=O)(=O)c2ccc(F)cc2)O[C@@H]1CO)C1CCOCC1	-0.7	i
O=C(C[C@H]1CC[C@H]2[C@@H](COC[C@H](O)CN2C(=O)Nc2cccc(F)c2)O1)NCCCN1CCOCC1	-1.6	i
C[C@@H]1CN([C@@H](C)CO)C(=O)Cc2cc(NC(=O)Nc3cccc4ccccc34)ccc2O[C@H]1CN(C)C(=O)NC1CCCCC1	4.7	i
C[C@@H]1CN([C@@H](C)CO)C(=O)c2cc(N(C)C)ccc2O[C@@H]1CN(C)C(=O)Nc1ccc2c(c1)OCO2	-0.8	i
CCC(=O)Nc1ccc2c(c1)C(=O)N(C)[C@@H]1CC[C@@H](CC(=O)NCCCN(C)C)O[C@@H]1CO2	0.6	i
C/C=C/c1ccc2c(c1)O[C@H](CN(C)Cc1cccnc1)[C@@H](C)CN([C@@H](C)CO)S2(=O)=O	5.7	i
CCCc1cn(CC[C@@H]2CC[C@H](NC(=O)Nc3ccc4c(c3)OCO4)[C@@H](CO)O2)nn1	0.5	i
Cc1ccc(S(=O)(=O)Nc2ccc3c(c2)C(=O)N([C@@H](C)CO)C[C@H](C)[C@@H](CN(C)S(=O)(=O)c2cccs2)OCCCC[C@H](C)O3)cc1	0.0	i
CN1CCN(C(=O)C[C@@H]2CC[C@H]3[C@H](COc4ccc(NC(=O)c5cccs5)cc4C(=O)N3C)O2)CC1	-1.2	i
C[C@@H]1CCCCO[C@@H](CN(C)S(=O)(=O)c2cccs2)[C@H](C)CN([C@H](C)CO)C(=O)c2cc(NC(=O)C3CCCCC3)ccc2O1	0.0	i
C[C@@H]1CCCCO[C@H](CN(C)Cc2ccc(Cl)c(Cl)c2)[C@@H](C)CN([C@H](C)CO)C(=O)c2cc(NC(=O)Nc3ccccc3)ccc2O1	1.3	i
COc1ccc2c3c([nH]c2c1)[C@@H](CO)N(Cc1ccccc1F)CC31CN(C)C1	3.5	i
CC(C)NC(=O)N[C@H]1CC[C@@H](CCN)O[C@H]1CO	0.0	i
Continuation.
SMILES	AF4-AF9 inh	FGF22 binding
O=C(c1ccc2c(c1)OCO2)N1C[C@H]2[C@@H](c3ccccc31)[C@H](CO)N2Cc1ccc2c(c1)OCO2	5.6	i
C[C@H](CO)N1C[C@H](C)[C@H](CN(C)Cc2ccc(C(F)(F)F)cc2)Oc2ccc(NC(=O)Cn3cnnn3)cc2C1=O	0.3	i
CC(C)NC(=O)N1CC2(C1)[C@H](c1ccccc1)[C@H](CO)N2C(=O)C1CCOCC1	-2.4	i
COc1ccc(NC(=O)N[C@@H]2CC[C@@H](CCNC(=O)c3cc(Cl)cc(Cl)c3)O[C@@H]2CO)cc1	-3.0	i
COc1ccc(NC(=O)N(C)C[C@@H]2OCCCC[C@@H](C)Oc3ccc(NC(=O)Cc4ccccc4)cc3C(=O)N([C@H](C)CO)C[C@H]2C)cc1	-2.6	i
CCCNC(=O)N(C)C[C@@H]1Oc2cc(C#Cc3cccc(F)c3)ccc2S(=O)(=O)N([C@@H](C)CO)C[C@H]1C	-3.2	i
COC(=O)[C@]12C[C@H](CC(=O)N3CCCC3)C(=O)N(CCC3=CCCCC3)C1=C[C@H](COCc1ccccc1)O[C@@H]2C	-6.8	i
CN1C[C@@H]2[C@H](c3ccccc31)[C@H](CO)N2C(=O)C1CCCCC1	-6.1	i
CN(C)C(=O)c1cccc(-c2ccc([C@H]3[C@@H](CO)N4CCCCN(CCC(F)(F)F)C[C@@H]34)cc2)c1	0.9	i
O=C(c1cccnc1)N1C[C@H]2[C@@H](c3ccccc31)[C@@H](CO)N2C(=O)C1CCCCC1	-0.6	i
COc1ccc(CN(C)C[C@@H]2Oc3c(NS(C)(=O)=O)cccc3C(=O)N([C@@H](C)CO)C[C@H]2C)cc1	0.2	i
Cn1cnc(S(=O)(=O)N2CCCCN3[C@@H](CO)[C@@H](c4ccc(C#CC5CCCC5)cc4)[C@@H]3C2)c1	6.7	i
C[C@@H]1CN([C@H](C)CO)C(=O)c2cc(C#CCc3ccccc3)cnc2O[C@@H]1CN(C)Cc1ccc(C(=O)O)cc1	0.4	i
COCc1cn(CC[C@@H]2CC[C@H](NC(=O)Nc3ccc(Cl)cc3)[C@@H](CO)O2)nn1	-0.6	i
C[C@@H]1CN([C@H](C)CO)C(=O)c2cccc(NC(=O)NC3CCCCC3)c2O[C@@H]1CN(C)S(=O)(=O)c1cccs1	-0.3	i

3 entries from above, arranged by length of the SMILES, falling.
SMILES	AF4-AF9 inh	FGF22 binding
Cn1cnc(S(=O)(=O)N2CCCCN3[C@@H](CO)[C@@H](c4ccc(C#CC5CCCC5)cc4)[C@@H]3C2)c1	6.7	i
COc1ccc(NC(=O)N[C@@H]2CC[C@@H](CCNC(=O)c3cc(Cl)cc(Cl)c3)O[C@@H]2CO)cc1	-3.0	i
O=C(c1cccnc1)N1C[C@H]2[C@@H](c3ccccc31)[C@@H](CO)N2C(=O)C1CCCCC1	-0.6	i

Exported with bars between the fields: entries from further up.
Molecule | AF4-AF9 inh | FGF22 binding
C[C@@H]1CN([C@H](C)CO)C(=O)c2cc(C#CCc3ccccc3)cnc2O[C@@H]1CN(C)Cc1ccc(C(=O)O)cc1 | 0.4 | i
COCc1cn(CC[C@@H]2CC[C@H](NC(=O)Nc3ccc(Cl)cc3)[C@@H](CO)O2)nn1 | -0.6 | i

Further compounds follow.
SMILES	AF4-AF9 inh	FGF22 binding
COc1ccc2c3c([nH]c2c1)[C@@H](CO)N(C(=O)C1CCCC1)CC31CCN(S(C)(=O)=O)CC1	4.1	i
C[C@H](CO)N1C[C@H](C)[C@H](CN(C)C(=O)Nc2ccccc2)Oc2cc(C#Cc3ccccc3)ccc2S1(=O)=O	-1.8	i
CCC(=O)N(C)C[C@H]1Oc2ncc(-c3ccc(F)cc3)cc2C(=O)N([C@@H](C)CO)C[C@H]1C	-1.0	i
COCC(=O)N(C)C[C@@H]1Oc2cc(-c3cncnc3)ccc2S(=O)(=O)N([C@@H](C)CO)C[C@H]1C	-0.1	i
